Bioassay records from PubChem.
Menin MLL FP FL: displaces fluorescein MLL peptide from human menin; Fluorescence polarization, fluorescein-MLL peptide displacement from menin; AID 1766; FP activity change, % at 61.4 µM; 290,000 tested, under 10 active; inconclusive = falling polarisation curve, or a change in total fluorescence; inactive = total fluorescence flat and polarisation flat or rising; no compound was filed as active; the % refers to the polarisation; negative = inhibition;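 note: % of control where 0% means no effect; inhibitors lower the polarisation; unlabelled MLL peptide was the positive control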
gsp ag: agonists of gsp mutant (McCune-Albright syndrome). gsp mutant cells, cAMP HTRF, 30 min; control for the full effect not named in the record. Potency, µM (top dose mostly 76.9 µM), for the others: top-dose activation (cAMP increase), hits mostly activators. hit rate 0.13% among 340,000. AID 624287; active = well fitted activation curve with a large enough effect; inconclusive = small, poorly fitted or top-dose-only effect, or another doubt; inactive = no such curve, though single readings can be large or run the other way; cell line not stated here;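 note: phosphodiesterase inhibitor Ro 20-1724 added with compounds to block cAMP breakdown; potency is the fitted concentration of half-maximal effect; nearly all actives have a fitted effect of over 60% in size; about a fifth of the inactives were tested at one dose only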
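Cells in DMEM/10% FBS with G418 were pretreated with compounds in DMSO plus […] (300 uM stock) for 30 min at 37C. cAMP was measured by HTRF (cAMP-d2 plus anti-cAMP antibody-K) after 30 min at room temperature.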
gsp antag: antagonizes gsp, the McCune-Albright syndrome mutation; gsp-mutant cells, cAMP HTRF, 30 min; control for the full effect not named in the record; Potency, µM (top dose mostly 76.9 µM), for the others: at the highest dose activity change, negative = inhibition, actives largely listed as inhibitors; hit rate 0.4% among 340,000; AID 624288; active = falling curve of any shape with a large fitted effect; inconclusive = falling curve, mostly with a smaller effect; inactive = flat or rising curve; cell line not stated here;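 note: intracellular cAMP measured with PDE inhibitor Ro 20-1724 present during compound exposure; potency is the fitted concentration of half-maximal effect; % is set by controls: 0 for no effect and ±100 for the full control effect; nearly all actives have a fitted effect of over 65% in size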
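HTRF cAMP measurement after 30 min RT detection following 30 min, 37C compound treatment alongside […] (added as 300 uM solution) in G418-selected cells seeded at 2000/well and grown 16–24 h.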
Sfp inh: inhibitors of Bacillus subtilis Sfp phosphopantetheinyl transferase; Q9F4F7; Biochemical Sfp PPTase activity, qHTS; Potency, µM, inactives show max response, negative = inhibition, actives largely listed as inhibitors; hit rate 3.5% among 310,000; AID 1490; active = well fitted inhibition curve with a large enough effect; inconclusive = small, poorly fitted or top-dose-only effect, or another doubt; inactive = no such curve, though single readings can be large or run the other way;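 note: the enzyme is Sfp with the accession as filed and its product quenches rhodamine fluorescence; potency is the fitted concentration of half-maximal effect; 0% = enzyme reaction without inhibitor and -100% = no enzyme wells; top concentration of the series not given in the record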
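Compounds were incubated with enzyme (final 15 nM) for 15 min at room temperature before substrate addition started the reaction. Fluorescence at 525 nm excitation, 598 nm emission was recorded immediately and after 30 minutes.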
TRPV1 PAM: human TRPV1 potentiation | Q8NER1 | potentiation, % at 8.33 µM | TRPV1-expressing cells, Fluo-8 calcium influx, capsaicin EC20 potentiation; host cell line not named in the record; control for the full effect not named in the record | hit rate 0.02% among 320,000; active means potentiation above 80%; inconclusive means 30% to 80%; inactive means below 30%; note: 0% is about no effect
Target sequence (Q8NER1 whole entry, looked up): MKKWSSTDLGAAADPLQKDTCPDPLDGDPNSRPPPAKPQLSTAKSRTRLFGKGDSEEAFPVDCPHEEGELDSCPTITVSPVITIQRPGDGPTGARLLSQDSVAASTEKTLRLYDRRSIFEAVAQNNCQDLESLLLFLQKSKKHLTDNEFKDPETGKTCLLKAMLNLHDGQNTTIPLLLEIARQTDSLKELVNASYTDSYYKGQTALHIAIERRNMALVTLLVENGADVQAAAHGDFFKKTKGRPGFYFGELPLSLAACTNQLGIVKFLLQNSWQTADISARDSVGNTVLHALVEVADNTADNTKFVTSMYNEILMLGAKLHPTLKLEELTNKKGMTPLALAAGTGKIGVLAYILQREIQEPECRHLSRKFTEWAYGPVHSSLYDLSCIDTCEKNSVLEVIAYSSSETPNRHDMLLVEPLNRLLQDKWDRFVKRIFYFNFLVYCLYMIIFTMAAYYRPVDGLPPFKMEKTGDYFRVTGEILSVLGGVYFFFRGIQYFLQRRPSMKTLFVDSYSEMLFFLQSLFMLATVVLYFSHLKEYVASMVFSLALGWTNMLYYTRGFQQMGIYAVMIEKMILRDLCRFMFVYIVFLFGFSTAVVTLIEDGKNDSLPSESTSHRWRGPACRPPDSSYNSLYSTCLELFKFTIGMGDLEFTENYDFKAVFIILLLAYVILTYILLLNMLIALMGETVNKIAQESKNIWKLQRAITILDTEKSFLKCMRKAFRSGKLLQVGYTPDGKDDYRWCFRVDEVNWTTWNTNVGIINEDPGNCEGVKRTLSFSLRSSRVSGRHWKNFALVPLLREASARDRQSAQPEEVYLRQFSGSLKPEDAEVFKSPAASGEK
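Fluo-8 calcium influx in TRPV1-expressing cells, kinetic read (ex 480/em 520 nm). Compound added and read 3 min for agonist activity, followed by capsaicin at EC20 final and 2 min further read for enhancement.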
ClpP mod: qHTS Assay for Activators of ClpP | hit rate 1.9% among 340,000 | purified B. subtilis ClpP, FRET peptide cleavage, 20 min | Potency, µM (highest dose often 57.5 µM), for the others: at the highest dose activity change, negative = active | ATP-dependent Clp protease proteolytic subunit (Bacillus subtilis (strain 168)), P80244; active = well fitted falling curve with a large enough effect; inconclusive = small, poorly fitted or top-dose-only effect; inactive = no such curve, though single readings can be large or run the other way; note: potency is the fitted concentration of half-maximal effect; the source files actives as falling curves though it sought activators and does not explain the sign; nearly all actives have a fitted effect of over 65% in size; many hits overshoot -100%
Target sequence (P80244 whole entry, looked up): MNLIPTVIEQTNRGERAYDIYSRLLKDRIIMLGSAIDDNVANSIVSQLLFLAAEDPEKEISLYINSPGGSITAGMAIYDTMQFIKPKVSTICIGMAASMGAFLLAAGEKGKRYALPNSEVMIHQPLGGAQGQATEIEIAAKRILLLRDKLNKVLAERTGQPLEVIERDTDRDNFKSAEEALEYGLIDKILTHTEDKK
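Purified B. subtilis ClpP, 10 microg/mL final in Tris/HCl pH8 with KCl, BSA, glycerol and Tween-20, cleaved an Abz/nitrotyrosine-quenched decapeptide. Fluorescence (ex 320, em 430) was read at 0 and 20 min at room temperature. Delta was normalized to 5.8 microM ADEP and DMSO/no-enzyme controls.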
CtBP-E1A blk: CtBP/E1A binding inhibition. AlphaScreen GST-E1A/His-CtBP binding, 1536-well; stronger effect = lower value; control for the full effect not named in the record. activity change, % (test concentration not listed). hit rate 0.49% among 340,000. AID 651724; in the data active means activity change below about -65%; inconclusive means about -30% to -65%; inactive means above about -30%; note: % is set by controls: 0 for no effect and ±100 for the full control effect; compound concentration not given in the record
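Steps: dispense buffer (Tris pH 8.0, NaCl 300 mM, TCEP 1 mM, BSA, Tween 20); add 5X protein mix (GST-E1A, His-CtBP, 125 nM each); pin 23 nL compound; 2 h at 37 °C, dark; add 5X beads (50 ug/mL); 1 h; read.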
The depositor's hits bear a star; ? = inconclusive; . = no result given; & = joins results of further samples; [ ] = another dose, or the depositor's remark.

No.	SMILES	Menin MLL FP FL	gsp ag	gsp antag	Sfp inh	TRPV1 PAM	ClpP mod	CtBP-E1A blk
1	O=C1OC(/C(=C\Nc2cc(Cl)ccc2O)[N+](=O)[O-])c2ccccc21 (stereo not given)	3.7	19%[15.4 µM]	-24%	3%	-15	.	1
2	Cc1cc(C)cc(C(=O)NCC(=O)OCc2c(C)noc2C)c1	5.8	-7%	14%	-3%	-8	-20%	10
3	CC1CCN(c2ccc(C(F)(F)F)cc2N)CC1	-1.7	-6%[15.4 µM]	2%	16%	-3	-2.4%	-9
4	COC(=O)/C(C#N)=C/c1c(Oc2cc(C)cc(C)c2)nc2c(C)cccn2c1=O	.	-37%[inhibitor]	-8%	4%	1	-1.8%	8
5	Cc1ccc(-n2ncc3c(=O)[nH]c(SCC(=O)NCC4CCCO4)nc32)cc1 (stereo not given)	.	-35%[inhibitor]	-10%	.	.	-2.3%	-3
6	CC(NC(=O)C(C)(C)C)C(c1cccs1)N1CCN(Cc2ccccc2)CC1 (stereo not given)	0.8	13%	-7%	9%	-18	-2.7%	.
7	COCCN(Cc1cn(C)nc1-c1ccc(Oc2ccccc2)cc1)C(C)C	-6.1	0%	-29%	-3%	-1	-0.2%	0
8	O=C(CC1CCS(=O)(=O)C1)NC1CCCCC1 (stereo not given)	5.1	21%	13%	17%	-2	-0.6%	1
9	Cc1cc2cc(CNC(=O)c3ccc4c(c3)OCO4)ccc2[nH]1	-1.8	1%	-10%	9%	28	0.2%	4
10	COc1ccc(NS(=O)(=O)c2ccc(NC(=O)CCNS(=O)(=O)c3ccc(C)cc3)cc2)cc1	-0.3	-2%[15.4 µM]	-8%	-8%	3	?	-5
11	O=c1cc(CN2CCN(CCO)CC2)c2cc3c(cc2o1)CCC3	-4.2	3%	3%	7%	-8	-10%	3
12	CCOc1ccc(NS(=O)(=O)c2cc(C(=O)N3CCCC3)ccc2Cl)cc1	.	1%[15.4 µM]	-5%	.	2	2.2%	4
13	O=C1CN(C(=O)c2ccccc2F)C(c2ccc(F)cc2)c2cc(Br)ccc2N1 (stereo not given)	-4.4	13%	-17%	-5%	2	.	-1
14	O=C(Cc1ccccc1Cl)Nc1cccnc1	1.2	9%	-10%	17%	-1	.	7
15	CNc1snc(C)c1C(=O)OCC(=O)c1ccc(Cl)cc1	.	-1%	?	.	11	-3.0%	.
16	O=C(COC(=O)c1ccccc1)NC1CCCC1	-27	12%	1%	1%	8	.	5
17	COc1ccc(-n2ncc3c2CC(C)(C)CC3NC(=O)CCN2CCCC2=O)cc1 (stereo not given)	.	-32%	2%	8%	-20	-3.1%	-10
18	CCC1=NN2C(=N)/C(=C\c3cccn3-c3ccc(Br)cc3)C(=O)N=C2S1	2.4	-2%	?	20%	14	0.7%	.
19	Clc1ccc(OCCn2ccnc2)c(Cl)c1	6.3	25%	-3%	-13%	15	-2.1%	1
20	O=c1c(C=NCc2ccccc2)c(NCc2ccccc2)nc2ccccn12	-0.6	-28%	5%	?	-3	-16%	2

Compounds from the list above with an NH in an aromatic ring, in the order listed:
No.	SMILES	Menin MLL FP FL	gsp ag	gsp antag	Sfp inh	TRPV1 PAM	ClpP mod	CtBP-E1A blk
5	Cc1ccc(-n2ncc3c(=O)[nH]c(SCC(=O)NCC4CCCO4)nc32)cc1 (stereo not given)	.	-35%[inhibitor]	-10%	.	.	-2.3%	-3
9	Cc1cc2cc(CNC(=O)c3ccc4c(c3)OCO4)ccc2[nH]1	-1.8	1%	-10%	9%	28	0.2%	4

Exported with two lines to a compound: part of the list above
Results follow in this order: Menin MLL FP FL | gsp ag | gsp antag | Sfp inh | TRPV1 PAM | ClpP mod | CtBP-E1A blk
(12) CCOc1ccc(NS(=O)(=O)c2cc(C(=O)N3CCCC3)ccc2Cl)cc1
    . | 1%[15.4 µM] | -5% | . | 2 | 2.2% | 4
(13) O=C1CN(C(=O)c2ccccc2F)C(c2ccc(F)cc2)c2cc(Br)ccc2N1 (stereo not given)
    -4.4 | 13% | -17% | -5% | 2 | . | -1

New compounds follow:
No.	SMILES	Menin MLL FP FL	gsp ag	gsp antag	Sfp inh	TRPV1 PAM	ClpP mod	CtBP-E1A blk
21	CCOC(=O)C(C)Sc1nnc(-c2ccccc2O)n1Cc1ccccc1 (stereo not given)	1.4	21%	-33%	1%	-13	0.9%	1
22	CCc1c(C)c2cc(Cl)c(O)c(CN3CCCCC3)c2oc1=O	3.2	7%	-1%	10%	8	6.2%	6
23	C[C@@H]1CN([C@H](C)CO)C(=O)CCCn2nncc2CO[C@H]1CN(C)C(=O)Nc1ccc2c(c1)OCO2	.	-15%	.	.	.	-1.6%	1
24	COc1cc(/C=N/n2c(-c3ccccc3)n[nH]c2=S)ccc1O	-6.3	12%	-28%	14%	.	-0.9%	6
25	COc1cc(C)cc(OC)c1OCC(=O)Nc1cc(C)on1	.	-12%	-6%	.	-5	-2.1%	1
26	Cc1cc(C)c(C(=O)N2CCCC(Nc3ccc(C)c(C)c3)C2)o1 (stereo not given)	7.8	7%	3%	2%	5	-1.2%	-16
27	Cc1cnc(C(=O)Nc2ccc(F)cc2)cn1	4.9	?	6%	10%	-24	1.2%	9
28	CCN1CCN(C(=S)Nc2cccc(C(F)(F)F)c2)CC1	-2.8	-1%[15.4 µM]	2%	5%	-24	0.0%	2
29	COC(=O)C(Cc1ccc(OC(=O)c2ccc(C)cc2)cc1)N1Cc2ccccc2C1=O (stereo not given)	0.8	-3%	-20%	-13%	10	-3.2%	6
30	CCOC(=O)c1nc(Nc2cc(C)cc(C)c2)c2ccccc2n1	1.4	-5%[15.4 µM]	7.9µM*	9%	-8	.	0
31	O=c1[nH]nc(N2CCOCC2)c(=O)[nH]1	-1.8	5%	9%	1%	5	0.3%	4
32	COc1ccc(CN2CCn3ncc(C(=O)Nc4cccc(C)c4)c3C2=O)cc1	1.2	-15%	-16%	16%	-7	-3.0%	-4
33	COC(=O)NC(Nc1sc2c(c1C(N)=O)CCCC2)(C(=O)OC)C(F)(F)F (stereo not given)	4.3	-24%	-10%	22µM*	3	-1.0%	2
34	CS(=O)(=O)N1CCN(CC(=O)NC2CCCC2)CC1	0.8	-4%	9%	13%	-7	-2.0%	.
35	O=C(/C=C/c1ccc(Cl)c([N+](=O)[O-])c1)NCc1cccnc1	.	-1%	9%	.	.	-1.0%	-1
36	CCOc1ccc(C(C)(C)C)cc1S(=O)(=O)n1nc(C)cc1C	0.7	6%	?	12%	-4	1.8%	4
37	Fc1ccc(C2NCCn3cccc32)cc1 (stereo not given)	2.5	-4%	5%	2%	5	0.9%	-9
38	CCN(Cc1ccc(OC)c(F)c1)C(=O)c1oc2ccccc2c1COC	2.2	?	-14%	-4%	-9	.	11
39	O=C(CCNC(=O)c1ccc(Br)cc1)NCc1ccccc1F	.	4%[15.4 µM]	1%	.	-11	.	-1
40	COc1ccc(CCNC(=O)[C@H](CC(C)C)NC(=O)N2CCn3c2nc2ccccc23)cc1OC	-3.7	13%	-1%	9%	2	0.1%	0
41	Cc1nc(C)c(-c2ccc(SCc3ccccc3F)nn2)s1	.	?	-14%	-7%	-2	2.4%	.
42	O=C1c2cccnc2C(=O)N1c1cccc(-c2nc3ccccc3o2)c1	1.3	-23%	2%	1%	8	2.1%	-10
43	CCOC(=O)c1nc(C(=O)NCc2ccc(C)cc2)nc2ccccc12	.	.	1%	.	.	-1.5%	-1
44	O=C(Cc1cccs1)Nc1ccccc1F	-5.5	-1%[15.4 µM]	14%	0%	27	0.9%	-1
45	O=c1cc(CN2CCCCC2)nc(C2CC2)[nH]1	0.6	-2%	8%	28%	26	.	-11
46	COCCOC(=O)c1c(C)oc2ccc(O)c(CN3CCC(C)CC3)c12	2.3	-9%	8%	15%	-10	-0.1%	2
47	CCn1cc(CNCc2c(C(=O)N3CCCCC3)nc3c(C)cccn23)cn1	-0.2	5%[15.4 µM]	9%	13%	-5	.	-17
48	Cc1cccc(CCNS(=O)(=O)c2ccc3c(c2)NC(=O)CO3)c1	.	-11%	10%	18%	7	-0.8%	.
49	CCn1cc(C(=O)NCC(=O)OC)c2cc(OC)c(OC)cc2c1=O	-2.1	4%	16%	7%	4	-18%	-1
50	CN(C)[C@@H]1CCC[C@@H]1OC(=O)C(c1ccccc1)c1ccccc1	5.9	?	-13%	?	27	-2.4%	-11
51	Cc1ccccc1OCC(O)Cn1c(SC(C)C)nc2c1c(=O)[nH]c(=O)n2C (stereo not given)	0.9	-6%	15%	56µM*	2	0.1%	-1
52	CCCCC1CC1C(=O)Nc1ncc2c(n1)CC(C)(C)CC2=O (stereo not given)	-0.4	25%	5%	6%	-3	0.3%	-5
53	Cc1cccc(NS(=O)(=O)c2nnc(NC(=O)c3ccccc3F)s2)c1	-2.4	17%	-8%	28%	8	-2.0%	3
54	CCc1noc(C)c1C(=O)NCCN1C(=O)S/C(=C\c2ccc(OC)cc2)C1=O	.	11%	?	.	12	4.9%	2
55	O=C(CS(=O)(=O)c1ccccc1)c1ccc2c(c1)OCCO2	-0.1	-9%	7%	0%	4	-5.2%	5
56	CC1(OC(=O)C2CCCC2)C(=O)C=C2C=C(c3ccsc3)N(c3ccccc3)C=C2C1=O (stereo not given)	-0.7[11.7 µM]	?	-3%	-13%&3%	-16	-0.8%	-17
57	Cc1cc(NC(=O)CCC(=O)N(CC(=O)NCC2CCCO2)c2ccc(C(C)C)cc2)no1 (stereo not given)	4.0	-24%[15.4 µM]	.	8%	-1	.	-18
